VDR inh = inhibitors of human vitamin D receptor. P11473. VDR-SRC2-3 peptide fluorescence polarization, 2 h. Potency, µM, for the others: max response, negative = inhibition, most hits filed as inhibitors. 400,000 tested, 0.93% active; active = well fitted inhibition curve with a large enough effect; inconclusive = small, poorly fitted or top-dose-only effect, or another doubt; inactive = no such curve, though single readings can be large or run the other way; also: series mostly up to about 120 µM
Target sequence (P11473 whole entry, looked up): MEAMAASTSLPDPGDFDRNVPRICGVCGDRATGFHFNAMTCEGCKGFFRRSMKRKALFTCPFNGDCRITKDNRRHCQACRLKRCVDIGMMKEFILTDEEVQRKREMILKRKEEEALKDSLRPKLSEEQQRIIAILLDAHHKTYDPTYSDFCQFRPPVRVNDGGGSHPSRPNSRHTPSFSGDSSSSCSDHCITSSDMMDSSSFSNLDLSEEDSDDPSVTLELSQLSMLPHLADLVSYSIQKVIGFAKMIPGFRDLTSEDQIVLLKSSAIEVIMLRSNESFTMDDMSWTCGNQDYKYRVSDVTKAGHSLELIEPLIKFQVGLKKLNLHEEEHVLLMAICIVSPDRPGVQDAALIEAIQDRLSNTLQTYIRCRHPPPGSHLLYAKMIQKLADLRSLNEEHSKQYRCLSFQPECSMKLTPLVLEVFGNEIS
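Fluorescence polarization assay of small-molecule disruption of VDR binding to coregulator peptide SRC2-3. Compounds and controls pin-transferred, then read after 2 h incubation at ambient room temperature.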
Active calls of the source: *; ? = inconclusive; & = joins results of further samples; ! = not confirmed by another sample. % is scaled to controls: 0 for no effect and ±100 for the full control effect; potency is read from the fitted curve at half-maximal effect.

SMILES | VDR inh
COc1ccc(N(C(=O)CCl)C(C(=O)NCCc2ccccc2)c2cccs2)cc1 (configuration not stated) | ?
CCN(CC(=O)Nc1ccc(NC(C)=O)cc1)C(=O)c1cc(-c2ccccc2)nn1-c1ccccc1 | -19%
O=C(O)c1cc(S(=O)(=O)Nc2ccc(N3CCCCC3)cc2)ccc1Cl | -6%
Cc1ccc(CNC(=O)CCN2C(=O)COc3ccc(C)cc32)cc1 | 5%
CCOC(=O)C1CCCN(c2c(N3CCN(C4CCCCC4)CC3)c(=O)c2=O)C1 (configuration not stated) | 15%
COc1ccc(N2CCN(c3cc(=O)n(Cc4ccc(F)cc4)c(=O)[nH]3)CC2)cc1 | 4%
O=c1cc(CN2CCN(c3ccccc3)CC2)nc2scc(-c3ccccc3)n12 | 10%
COc1ccc(C(C)(C)C)cc1NC(=O)CCN1C(=O)C2CCCCC2C1=O (configuration not stated) | 3%
Cn1cccc1Cc1nnc(SCC(=O)NCC2CCCO2)n1-c1ccc(F)cc1 (configuration not stated) | -17%
CC(C)NC(=O)C1CCC(Cn2c(=O)c3sccc3n(CC(=O)N3CCCC3)c2=O)CC1 (configuration not stated) | -3%
C/C(=N\NC(=O)CSCc1ccc(Cl)cc1)c1ccc(NC(=O)c2ccccc2)cc1 | 0%
COC(=O)c1[nH]c2c(c1C)C(=O)CC(c1cccs1)C2 (configuration not stated) | -2%
CCCS(=O)(=O)N1CCC(C(=O)NCc2ccccc2Cl)CC1 | -18%
COc1ccc(OC)c(NC(=O)c2ccc(CSc3nnc(C)s3)cc2)c1 | 6%
COc1ccc(/C=C/C(=O)NC(=S)NCC2CCCO2)cc1 (configuration not stated) | -15%
Cc1cc(C)cc(Nc2nc3ccccc3c(=O)[nH]2)c1 | 17%
O=C(COC(=O)c1ccc(F)c(S(=O)(=O)N2CCOCC2)c1)Nc1ccc2[nH]c(=O)[nH]c2c1 | 14%
Cc1ccc(NC(=O)CSc2n[nH]c(C)c2[N+](=O)[O-])cc1C | -6%
Cc1ccc2c(c1)c(=O)c1ccccc1n2CCCC(=O)Nc1ccc(Cl)c(Cl)c1 | -4%
CSc1ccc(CN2CCCC(N3CCN(c4ccccc4)CC3)C2)cc1 (configuration not stated) | -15%
O=C(c1cccc(Br)c1)N1CCN(C(=O)N2CCCCC2)CC1 | 3%
O=C(Nc1ccccc1)c1cc([N+](=O)[O-])ccc1N1CCCCC1 | 13%
CC1CCCN(C(=O)Cn2c3ccccc3c3nc4n(c(=O)c32)CCS4)C1 (configuration not stated) | -15%
Cc1cccc(Nc2ncnc3onc(-c4cccc(Cl)c4)c23)c1C | -8%
COc1ccc2sc(-c3ccccc3OC)c(-c3ccc(OCCN(C)C)cc3)c2c1 | 11%
O=C(NCc1ccccn1)C1CCN(S(=O)(=O)N2CCC3(CC2)OCCO3)CC1 | 2%
CCC1Sc2ccc(S(=O)(=O)CCC(=O)N3CCc4ccccc43)cc2NC1=O (configuration not stated) | -14%
O=C(NCCS(=O)(=O)N1CCCCCC1)c1ccc(F)cc1 | 0%
Cc1ccc(C(=O)NNC(=O)c2ccc(Br)s2)cc1S(=O)(=O)N1CCOCC1 | -4%
Cc1ccc(C)c(NC(=O)CN(C)S(=O)(=O)c2cccc3nsnc23)c1 | -10%
C=CCN1C(=O)S/C(=C/c2ccsc2)C1=O | 11%
Cc1cc(C)n2c(Nc3c(C)cccc3C)c(-c3ccsc3)nc2n1 | ?
CC(C)COC(=O)c1cc(=O)[nH]c2ccccc12 | 8%
CCCOc1cccc(C(=O)Nc2ccc3c(c2)OCCO3)c1 | -28%
Cc1cccc(CNc2ccnc(-c3cccc(C#N)c3)n2)c1 | -19%
O=C(CCc1nc2ccccc2c(=O)[nH]1)Nc1nnc(SCc2ccccc2F)s1 | 10%
CC(=O)Nc1ccc(S(=O)(=O)N2CCSC2C(=O)O)cc1 (configuration not stated) | 6%
O=C(COc1ccc(-c2nnco2)cc1)N1CCN(S(=O)(=O)c2ccc3ccccc3c2)CC1 | 2%
CCOc1cccc(CC(=O)NCc2ccc3c(c2)CCN3C(=O)c2ccc(F)cc2)c1OCC | 11%
COc1nc(C)ccc1-c1noc(-c2ccco2)n1 | 1%

A draw from above in order of heavy-atom count, largest number first:
SMILES | VDR inh
COc1ccc2sc(-c3ccccc3OC)c(-c3ccc(OCCN(C)C)cc3)c2c1 | 11%
Cc1ccc2c(c1)c(=O)c1ccccc1n2CCCC(=O)Nc1ccc(Cl)c(Cl)c1 | -4%
COc1ccc(C(C)(C)C)cc1NC(=O)CCN1C(=O)C2CCCCC2C1=O (configuration not stated) | 3%
O=C(O)c1cc(S(=O)(=O)Nc2ccc(N3CCCCC3)cc2)ccc1Cl | -6%
Cc1cccc(Nc2ncnc3onc(-c4cccc(Cl)c4)c23)c1C | -8%
Cc1cccc(CNc2ccnc(-c3cccc(C#N)c3)n2)c1 | -19%

Further structures.
SMILES | VDR inh
CC1=Nn2c(nnc2-c2ccco2)SC1 | 1%
CC12CCC(C(=O)Nc3ccncc3)(CC1O)C2(C)C (configuration not stated) | 5%
O=C(OCC(=O)N1CCOCC1)c1ccc2ccccc2c1 | 0%
COc1cccc(N2CCN(C(=O)CCC(=O)N3CCOc4ccc(C)cc43)CC2)c1 | 3%
Nc1cc(=O)[nH]c(SCC(=O)Nc2cc(S(=O)(=O)N3CCCCC3)ccc2Cl)n1 | 7%
COc1ccc(C(=O)c2ccc(N(C)C)cc2)c(OC)c1 | -1%
CC(c1ccccc1F)n1cc(C(=O)NCCc2ccco2)nn1 (configuration not stated) | 8%
CCOC(=O)c1csc(NC(=O)CSc2nnnn2-c2ccc(OC)cc2)n1 | 1%
CCCCc1ccc(NC(=O)CSc2nc3ncccc3[nH]2)cc1 | 6%
CCOC(=O)c1c(NC(=O)CCCOc2ccc(C(C)(C)C)cc2)sc2c1CCCC2 | 9%
CC1CCCN(C(=O)Cn2c(=O)oc3cc(S(=O)(=O)N4CCCCC4)ccc32)C1 (configuration not stated) | 1%&-1%
Brc1ccc(-c2nc(N/N=C/c3cccnc3)c3ccccc3n2)cc1 | 4%
COc1ccc(C2/C(=C(/O)c3ccc4c(c3)CC(C)O4)C(=O)C(=O)N2CCCn2ccnc2)cc1 (configuration not stated) | 1%
CC(=O)Nc1ccc(NS(=O)(=O)c2ccc3c(c2)n(C)c(=O)n3C)cc1 | 17%
CC(C)NC(=O)c1sc2ncccc2c1-n1cccc1 | 6%
CCc1nnc(NC(=O)CSc2ncc(-c3ccccc3)n2C)s1 | -1%
CC(=O)c1ccc(OCC(=O)N(CCC2=CCCCC2)c2c(N)n(Cc3ccccc3)c(=O)[nH]c2=O)cc1 | 1%
O=C(CSc1nnc(CNc2ccc(F)cc2)n1Cc1ccccc1)NCc1ccco1 | 7%
CC(OC(=O)c1ccc([N+](=O)[O-])s1)C(=O)Nc1ncc(Cl)cc1Cl (configuration not stated) | -12%
COCCCNc1nc2c(c(=O)n(Cc3ccc(OC)cc3)c(=O)n2C)n1C | 10%
Clc1cccc(Cl)c1CO/N=C/c1c(-c2ccccc2)nc2n1CCS2 | -7%
COc1ccc(OC)c(NC(=O)CNC(=O)Cn2cnc3sc(C)cc3c2=O)c1 | -16%
CS(=O)(=O)c1ccc(C(=O)OCC(=O)NNC(=O)COc2ccc(Cl)cc2)cc1 | 12%
Cc1ccc(C(=O)Nc2nc(-c3ccc([N+](=O)[O-])cc3)cs2)o1 | -12%
Cc1cccc2[nH]c3c(N4CC=C(c5ccc(F)cc5)CC4)ncnc3c12 | -4%
O=C(Cn1c(CC(=O)N2CCCC2)nc2ccccc21)NCc1ccccc1 | 21%
FC(F)(F)c1cc(Oc2ccccc2)ncc1-c1nnc(-c2ccccc2Cl)o1 | 5%
CN(C)C(/C=C/Nc1ccc(F)cc1F)=C(C#N)C#N | -1%
C[C@H](NC(=O)c1ccc(C(C)(C)C)cc1)C(=O)N1CCN(C/C=C/c2ccccc2)CC1 | -1%
COCCOC(=O)C1=C(C)N=c2s/c(=C\c3cccs3)c(=O)n2C1c1cccs1 (configuration not stated) | -5%
CCOc1cccc(-c2nnc(SCC(=O)Nc3ccc(OC)c(OC)c3)n2N)c1 | 1%
Cc1cc(/N=C/N(C)C)on1 | -4%
CCc1ccc(NC(=O)N(CCN2CCOCC2)C2CCN(C(C)=O)CC2)cc1 | -7%
COc1ccc(CNC(=O)CN(Cc2ccc(Cl)cc2)C(=O)c2csnn2)cc1 | 6%
COc1ccc(CCN2C(=O)N[C@@H](CCC(=O)O)C2=O)cc1 | -9%
CNC(=O)c1cc2cc(OC)ccc2n1CCN(Cc1ccccc1)Cc1ccccc1 | 14%
Cc1cc(C)cc(NC(=O)CN2CCC(NC(=O)Cc3ccccc3)CC2)c1 | 12%
COC(=O)c1ccccc1NC(=O)Cn1nc(C(F)(F)F)c2c1CCCC2 | -16%
COc1ccc(C2c3ccc4ccccc4c3Oc3ncn(CCO)c(=N)c32)cc1 (configuration not stated) | -9%
COc1ccc(N2CCN(C(C)C(=O)N3CC(C)OC(C)C3)CC2)cc1 (configuration not stated) | -4%

Structures above containing a furan ring, fused or not (5):
SMILES | VDR inh
COc1nc(C)ccc1-c1noc(-c2ccco2)n1 | 1%
CC1=Nn2c(nnc2-c2ccco2)SC1 | 1%
CC(c1ccccc1F)n1cc(C(=O)NCCc2ccco2)nn1 (configuration not stated) | 8%
O=C(CSc1nnc(CNc2ccc(F)cc2)n1Cc1ccccc1)NCc1ccco1 | 7%
Cc1ccc(C(=O)Nc2nc(-c3ccc([N+](=O)[O-])cc3)cs2)o1 | -12%

Continuation:
SMILES | VDR inh
Cc1ccc(CS(=O)(=O)c2nc3c(c(N(C)C)n2)CCCC3)cc1 | 3%
Cc1c(C(=O)N2CCN(c3ccccn3)CC2)sc2ncnc(N3CCOCC3)c12 | 0%
CCOC(=O)c1ccc(NC(=S)Nc2ccccn2)cc1 | 5%
Cc1c(C)c2cc(Cl)c(OCC(=O)NC3CC(C)(C)NC(C)(C)C3)cc2oc1=O | -16%
Cc1cc(C(=O)Nc2ccc(F)cc2F)on1 | -4%
CC(C)N(Cc1ccccc1)C(=O)CN1C(=O)COc2ccc(S(=O)(=O)NC3CCCC3)cc21 | -12%&8%
Cc1cc2c(SCC(=O)NC3CCCCC3)ncnc2s1 | -12%
COc1ccc(C(=O)N2CCN(Cc3ccccn3)CC2)cc1 | 15%
Cc1nn(C)c(C(=O)NCc2ccc(Cl)cc2)c1Cl | -14%
Cc1nn(C)cc1C(C(=O)NC1CCCCC1)N(Cc1ccccc1Cl)C(=O)c1cnccn1 (configuration not stated) | -11%
Cc1oc(-c2ccccc2)nc1C(=O)OCC(=O)NCc1ccc(Cl)cc1 | 12%
COc1ccc(C(=O)C2CCCN(Cc3cccn3-c3nccs3)C2)cc1OC (configuration not stated) | 0%
O=C(OCc1ccc(-c2ccccc2)cc1)c1cccc(O)c1 | 21%
COc1ccc(/C=C2/SC(=S)N(n3c(C)ccc3C)C2=O)cc1 | 4%
Cc1ccc(C)c(NC(=O)CSc2nccn2Cc2ccco2)c1 | 26%
CCOc1cc(NC(=S)NCC2CCCO2)c(OCC)cc1NC(=O)c1ccccc1C (configuration not stated) | -5%
O=C(CC1C(=O)N(c2ccccc2)C(=O)N1CCc1cccs1)Nc1ccc(F)cc1 (configuration not stated) | -4%
Cc1ccc2[nH]c(O)c(N=Nc3ccccc3[N+](=O)[O-])c2c1 | -3%
CCCCCN1CC(=O)N2Cc3[nH]c4ccccc4c3C[C@H]2C1=O | 18%
Nc1nc(C(c2ccccc2)c2ccccc2)cs1 | 16%
COc1ccc(C(=O)Nc2ccccc2C(=O)Nc2ccccc2C(=O)O)cc1 | -5%
CC(=O)c1cc2c(cc1NS(=O)(=O)c1cccc(C(=O)O)c1)OCO2 | 7%
O=C(NNC(=O)c1cccnc1)Nc1cccc2ccccc12 | 3%
O=C(Nc1ccccc1C(=O)N1CCOCC1)C1CC(=O)N(C2CCCC2)C1 (configuration not stated) | -6%
COC(=O)c1cn(CC(=O)N2CCCCC2C)c2ccccc12 (configuration not stated) | 8%
Cc1ccc(N(C)C(=O)N2CCN(S(=O)(=O)c3c(C)cc(C)cc3C)CC2)cc1 | -2%
CCC1(c2ccccc2)NC(=O)N(CC(=O)NCc2ccc(C)cc2)C1=O (configuration not stated) | 6%
COCC(=O)N1CCC(Oc2ccc(C(=O)NC(C)c3nccs3)cc2)CC1 (configuration not stated) | -20%
CC(Nc1nc(-c2ccc(F)cc2)cs1)c1nc2cc(C(F)(F)F)ccc2n1CCOCCO (configuration not stated) | -16%
COc1cccc(-c2nc(SCC(=O)Nc3ccc4c(c3)OCO4)c(-c3ccccc3)[nH]2)c1 | 5%
CC(=O)NC12CC3CC(C1)CC(C(=O)N(C)CC(=O)Nc1ccccc1Cl)(C3)C2 | -20%
CCCOc1ccc(C(=O)Nc2ccc(N(C)C)cc2)cc1 | 2%
COc1ccccc1Nc1nc2cc(C)ccc2cc1C#N | -9%
CCOC(=O)c1c(NC(=S)Nc2ccccc2)sc2c1CCN(CC)C2 | 1%
N#Cc1ccsc1NC(=O)CSc1ncnc2ccccc12 | 10%
COc1ccc(CNC(=O)c2nn(C)c3c2CS(=O)(=O)c2ccccc2-3)cc1 | 79µM*!
NC(=O)c1cc(Cl)ccc1OCC(=O)NC1CC1 | -7%
Cc1nn(-c2ccccc2)c(Cl)c1/C=N/Nc1ccc(S(=O)(=O)Nc2ccccc2C(=O)O)cc1[N+](=O)[O-] | 79µM*
COc1ccccc1N(C(=O)c1ccco1)C(C(=O)NC1CCCC1)c1ccncc1 (configuration not stated) | -6%
O=C(Nc1ccccc1)N1CCN(CCc2ccccc2)CC1 | 21%
O=c1c2cc(NC(=S)NC3CC3)ccc2nc2n1CCCCC2 | -11%
Cc1ccc(-c2ccc(C#N)c(=O)n2CC(=O)N(C)C)cc1 | 12%
COc1ccccc1C(=O)NCCC(=O)NCC1CCCCC1 | ?
COC(=O)c1ccccc1Sc1c(/C=N/OCc2ccc(Cl)cc2)c(C(F)(F)F)nn1C | 5%
CCc1c(C)nc(N2CCOCC2)[nH]c1=O | 9%
CCOc1ccccc1NC(=O)COC(=O)C1CCC(=O)N1 (configuration not stated) | 0%

Compound activity (PubChem)

An excerpt; count on the stated rates, not on these rows.
